NOMO-1 viab = STK33 inhibitor candidate reducing NOMO-1 cell viability. NOMO-1 AML viability, CellTiter-Glo luminescence, 72 h. inhibition, % (test concentration not listed). 37,000 tested, 7.5% active;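 active = most replicates above 80%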;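 also: wells of about 30 µL received 25 nL stock; 0% = median of vehicle wells and 100% = reference inhibitor level; the first replicate is given; inactives centre near 10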
Starred values were filed as active, the others as inactive.

SMILES	NOMO-1 viab
C[C@H]1CN([C@@H](C)CO)C(=O)Cc2cc(NC(=O)Nc3ccc(F)cc3)ccc2O[C@H]1CN(C)S(=O)(=O)c1cn(C)cn1	-13
COc1ccc(N(CC(=O)Nc2cccnc2)S(C)(=O)=O)cc1	8
CC(C)NC(=O)Nc1ccc2c(c1)C(=O)N([C@@H](C)CO)C[C@@H](C)[C@H](CN(C)Cc1ccc(Oc3ccccc3)cc1)O2	-1
Cc1ccccc1NS(=O)(=O)c1cc(C(=O)NCC2CCCO2)ccc1C (stereo unspecified)	3
C[C@H](CO)N1C[C@H](C)[C@@H](CN(C)C)Oc2c(NS(=O)(=O)c3cccs3)cccc2C1=O	18
C[C@H]1CN([C@@H](C)CO)C(=O)c2cc(NC(=O)CCCCCC(=O)Nc3ccccc3N)ccc2O[C@@H]1CN(C)Cc1ccncc1	19
C[C@@H]1CN([C@H](C)CO)C(=O)c2cc(N(C)C)ccc2O[C@@H]1CN(C)S(=O)(=O)c1cn(C)cn1	4
Cc1ccc(S(=O)(=O)N(C)C[C@H]2Oc3ccc(NC(=O)CCC(F)(F)F)cc3C(=O)N([C@H](C)CO)C[C@H]2C)cc1	19

Next part
SMILES	NOMO-1 viab
C[C@H](CO)N1C[C@H](C)[C@H](CN(C)Cc2ccc(C(F)(F)F)cc2)Oc2ccc(NS(=O)(=O)c3ccccc3)cc2CC1=O	1
COc1cc(OC)cc(-c2nnc(SCC(=O)Nc3cc(C(F)(F)F)ccc3Cl)o2)c1	22
C/C=C(\C)C(=O)OC1C(OC(=O)/C=C(/C)CC(=O)O)C2(CO)C(O)CC3(C)C(=CCC4C5(C)CCC(OC6OC(C(=O)O)C(O)C(OC7OC(C)C(O)C(OC8OC(CO)C(O)C(O)C8O)C7O)C6O)C(C)(C)C5CCC43C)C2CC1(C)C (stereo unspecified)	122*
COc1ccc(NC(=O)C(C)N(c2ccc(Cl)cc2)S(C)(=O)=O)cc1 (stereo unspecified)	-9
C[C@@H]1CN([C@@H](C)CO)C(=O)c2cc(NC(=O)Cn3cnnn3)ccc2O[C@@H]1CN(C)Cc1ccccc1	20
C[C@@H]1CN([C@@H](C)CO)C(=O)c2cccc(NC(=O)c3ccc(-c4nccs4)cc3)c2O[C@H]1CN(C)S(C)(=O)=O	28
C[C@H]1CN([C@@H](C)CO)C(=O)c2cccc(NS(C)(=O)=O)c2O[C@H]1CN(C)C(=O)Nc1ccc2c(c1)OCO2	15
C[C@H]1CN([C@@H](C)CO)C(=O)Cc2cc(NC(=O)C3CC3)ccc2O[C@H]1CN(C)C	-15

Next part
SMILES	NOMO-1 viab
C[C@@H]1CN([C@H](C)CO)C(=O)c2cccc(NC(=O)Nc3ccccc3)c2O[C@H]1CN(C)S(=O)(=O)c1ccc(Cl)cc1	-12
Cc1ccc(S(=O)(=O)N(C)C[C@H]2Oc3c(NS(=O)(=O)c4cn(C)cn4)cccc3C(=O)N([C@@H](C)CO)C[C@@H]2C)cc1	-10
C[C@@H]1CN([C@H](C)CO)C(=O)c2cccc(NC(=O)C3CCCCC3)c2O[C@H]1CN(C)C(=O)Nc1ccc2c(c1)OCO2	7
C[C@H](CO)N1C[C@H](C)[C@H](CN(C)C(=O)Nc2ccc(F)cc2)Oc2c(NC(=O)Nc3ccc(F)cc3)cccc2C1=O	51
CC(C)(Oc1ccc(Cl)cc1)C(=O)Nc1ccccc1-c1nc2ccccc2s1	16
C=CCN(C(C)=O)c1nc(C)c(Br)c(OC)n1	13
C[C@@H]1CCCCO[C@@H](CN(C)Cc2ccc3c(c2)OCO3)[C@@H](C)CN([C@H](C)CO)C(=O)c2cc(NC(=O)Nc3ccc4c(c3)OCO4)ccc2O1	50
CN(CC(=O)O)S(=O)(=O)c1ccc(F)cc1	2

In the list so far, these contain a CF3 group.
SMILES	NOMO-1 viab
Cc1ccc(S(=O)(=O)N(C)C[C@H]2Oc3ccc(NC(=O)CCC(F)(F)F)cc3C(=O)N([C@H](C)CO)C[C@H]2C)cc1	19
C[C@H](CO)N1C[C@H](C)[C@H](CN(C)Cc2ccc(C(F)(F)F)cc2)Oc2ccc(NS(=O)(=O)c3ccccc3)cc2CC1=O	1
COc1cc(OC)cc(-c2nnc(SCC(=O)Nc3cc(C(F)(F)F)ccc3Cl)o2)c1	22

Further entries.
SMILES	NOMO-1 viab
CC(C)NC(=O)Nc1cccc2c1O[C@@H](CN(C)S(=O)(=O)c1ccccc1)[C@H](C)CN([C@H](C)CO)C2=O	37
Cc1cc(C)c(NC(=O)CN(c2ccc(C)c(C)c2)S(C)(=O)=O)c(C)c1	11
O=S(=O)(c1ccccc1)c1nc(-c2cccs2)oc1NCc1ccco1	-2
C[C@H]1CN([C@@H](C)CO)C(=O)Cc2cc(NC(=O)CCCN(C)C)ccc2O[C@H]1CN(C)Cc1ccc(Oc2ccccc2)cc1	-15
COc1ccc(CN(C)C[C@H]2Oc3ccc(NC(=O)NC4CCCCC4)cc3C(=O)N([C@@H](C)CO)C[C@@H]2C)cc1	-1
Cc1cc(C)cc(NC(=O)C2CC(=O)n3ncnc3N2)c1 (stereo unspecified)	-17
Cc1noc(C)c1S(=O)(=O)Nc1ccc2c(c1)CC(=O)N([C@H](C)CO)C[C@H](C)[C@H](CN(C)S(=O)(=O)c1c(C)noc1C)O2	25
COc1c2c(c(O)c3c(=O)c4c(OC)c(O)ccc4oc13)C1CCCC(C)(O2)O1 (stereo unspecified)	21

(more compounds)
SMILES	NOMO-1 viab
C[C@@H]1CN([C@H](C)CO)C(=O)Cc2cc(N(C)C)ccc2O[C@H]1CN(C)Cc1ccc(Cl)c(Cl)c1	36
Cc1ccc(S(=O)(=O)Nc2ccc3c(c2)C(=O)N([C@H](C)CO)C[C@@H](C)[C@H](CN(C)C(=O)Nc2c(C)noc2C)O3)cc1	-9
Cc1cc(C)cc(CC(C(=O)O)C(C)C(=O)NCc2ccccc2)c1 (stereo unspecified)	27
C[C@@H]1CN([C@@H](C)CO)C(=O)c2cccc(NC(=O)C3CC3)c2O[C@@H]1CN(C)S(C)(=O)=O	-2
CC1(C)NC(=O)N(CCCCOc2ccccc2[N+](=O)[O-])C1=O	-7
COc1ccc(S(=O)(=O)Nc2ccc3c(c2)C(=O)N([C@@H](C)CO)C[C@@H](C)[C@H](CN(C)C)O3)cc1	-3
O=C(Nc1ccc(S(=O)(=O)Nc2nccs2)cc1)c1cccnc1	-2
CN(CC(=O)Nc1cccc(Cl)c1)S(=O)(=O)c1ccc2ccccc2c1	-16

(further entries)
SMILES	NOMO-1 viab
Cc1ccc(S(=O)(=O)N(C)C[C@@H]2Oc3c(NS(=O)(=O)c4ccc(Cl)cc4)cccc3C(=O)N([C@@H](C)CO)C[C@@H]2C)cc1	34
COc1ccc(NC(=O)Nc2cccc3c2O[C@@H](CN(C)S(=O)(=O)c2ccc(C)cc2)[C@H](C)CN([C@H](C)CO)C3=O)cc1	-3
COc1ccc2nc(SCC(=O)Nc3ccc(I)cc3)[nH]c2c1	7
C[C@@H]1CN([C@H](C)CO)C(=O)Cc2cc(NC(=O)C3CCCCC3)ccc2O[C@@H]1CN(C)C(=O)NC1CCCCC1	-2
C[C@H]1CN([C@@H](C)CO)C(=O)c2cccc(NS(=O)(=O)c3ccc(Cl)cc3)c2O[C@@H]1CN(C)S(=O)(=O)c1ccccc1	20
Cc1ccc(N(C(C)C(=O)Nc2ccc(I)cc2C)S(C)(=O)=O)cc1C (stereo unspecified)	15
CC(NC(=O)c1ccc(C(C)(C)C)cc1)c1ccccc1 (stereo unspecified)	25
COc1cc(OC)c(NC(=O)CN2C(=O)c3ccccc3C2=O)cc1Cl	-2

The results go on:
SMILES	NOMO-1 viab
Cc1ccc(S(=O)(=O)NC2(C(F)(F)F)C(=O)N(CC3CCCO3)C3=C2C(=O)CC(C)(C)C3)cc1 (stereo unspecified)	10
C[C@@H]1CN([C@@H](C)CO)C(=O)Cc2cc(NC(=O)Nc3ccccc3)ccc2O[C@@H]1CN(C)S(C)(=O)=O	-5
O=C(CS(=O)c1ccc(C(F)(F)F)cc1[N+](=O)[O-])Oc1ccc(C2CCCCC2)cc1 (stereo unspecified)	121*
C[C@@H]1CCCCO[C@@H](CN(C)C(=O)NC2CCCCC2)[C@@H](C)CN([C@H](C)CO)C(=O)c2cc(NS(=O)(=O)c3cn(C)cn3)ccc2O1	11
COc1cc(OC)cc(-c2nnc(SCC(=O)Nc3ccc(F)cc3)o2)c1	-14
CS(=O)(=O)N(CC(=O)Nc1ccc(I)cc1)Cc1ccccc1	-12
OC[C@H]1O[C@@H](n2cnc3c(NCc4ccco4)ncnc32)[C@H](O)[C@@H]1O	108*
Cc1cc(=O)oc2cc(OC(C)C(=O)NCC3CCCO3)ccc12 (stereo unspecified)	24

Next section.
SMILES	NOMO-1 viab
COc1ccc(NC(=O)C2=C(C)NC(=S)NC2c2cccc([N+](=O)[O-])c2)c(OC)c1 (stereo unspecified)	-11
COc1ccc(OC)c(NC(=O)c2ccc(Cl)c(S(=O)(=O)Nc3ccc(C)cc3C)c2)c1	33
O=c1[nH]c(=O)c2sc3nc(-c4ccc5c(c4)OCCO5)cc(C(F)(F)F)c3c2[nH]1	20
C[C@H]1CN([C@@H](C)CO)C(=O)c2cccc(NC(=O)Nc3ccc(F)cc3)c2O[C@H]1CN(C)Cc1ccncc1	10
COc1cc(CO)cc(Br)c1OCc1cccc([N+](=O)[O-])c1	-5
O=C(NCc1ccco1)c1ccccc1NC(=O)C1COc2ccccc2O1 (stereo unspecified)	42
C[C@@H]1CCCCO[C@@H](CN(C)S(C)(=O)=O)[C@@H](C)CN([C@H](C)CO)C(=O)c2cc(NS(=O)(=O)c3cn(C)cn3)ccc2O1	-2
CC(=O)O[C@@H]1[C@@H](O)[C@H](C)O[C@@H](O[C@H]2[C@@H]3C=CO[C@@H](O[C@@H]4O[C@H](CO)[C@@H](O)[C@H](O)[C@H]4O)[C@@H]3[C@@]3(CO)O[C@@H]23)[C@@H]1OC(=O)/C=C/c1ccc(O)cc1	12

Later entries
SMILES	NOMO-1 viab
Cc1ccc(S(=O)(=O)N(C)C[C@@H]2Oc3ccc(NS(C)(=O)=O)cc3C(=O)N([C@H](C)CO)C[C@@H]2C)cc1	12
C/C1=C/CC(=O)C(C)C[C@H]2OC(=O)[C@H](C)C2[C@@H](O)C1 (stereo partly specified)	-10
C[C@H](CO)N1C[C@H](C)[C@H](CN(C)Cc2ccc(C(=O)Nc3ccccc3N)cc2)Oc2ccc(NC(=O)c3ccncc3)cc2CC1=O	128*
CC(C)NC(=O)Nc1cccc2c1O[C@H](CN(C)C(=O)Nc1ccc3c(c1)OCO3)[C@@H](C)CN([C@@H](C)CO)C2=O	12
Cc1cc(C)cc(OCC(=O)Nc2cc(-c3nc4ccc(C)cc4o3)ccc2C)c1	105*
CCC(C)C(Nc1ncnc2c1oc1ccccc12)C(=O)O (stereo unspecified)	-6
COc1ccc(NC(=O)N(C)C[C@@H]2Oc3c(NS(=O)(=O)c4ccc(C)cc4)cccc3C(=O)N([C@@H](C)CO)C[C@@H]2C)cc1	-1
COc1ccccc1OCCN1CCN(c2ccccc2)CC1	48

Going on with the list:
SMILES	NOMO-1 viab
C[C@H]1CN([C@@H](C)CO)C(=O)Cc2cc(NS(=O)(=O)c3cccs3)ccc2O[C@@H]1CN(C)Cc1ccncc1	-2
Cc1ccc(S(=O)(=O)N(C)C[C@H]2Oc3ccc(NS(C)(=O)=O)cc3CC(=O)N([C@H](C)CO)C[C@H]2C)cc1	6
COc1ccc(CN(C)C[C@H]2Oc3c(NS(=O)(=O)c4ccc(C)cc4)cccc3C(=O)N([C@@H](C)CO)C[C@H]2C)cc1	33
Cc1noc(C)c1S(=O)(=O)Nc1ccc2c(c1)CC(=O)N([C@@H](C)CO)C[C@H](C)[C@H](CN(C)Cc1ccc3c(c1)OCO3)O2	8
O=C(CSc1nnc(-c2cccc(Br)c2)n1-c1ccccc1)Nc1ccccc1[N+](=O)[O-]	18
CCN1CCN(C(=O)c2ccc(CNS(=O)(=O)c3cccc(OC)c3)cc2)CC1	4
O=C(NCCN1CCOCC1)c1cnn2c(C(F)F)cc(-c3ccccc3)nc12	2
COc1ccc(N(CC(=O)Nc2ccc(F)c(F)c2)S(C)(=O)=O)cc1Cl	22

More structures:
SMILES	NOMO-1 viab
COc1ccc(-n2c(SCCC(=O)O)nnc2-c2ccncc2)cc1	-14
COC(=O)[C@]1(Cc2ccc(O)c(CC=C(C)C)c2)OC(=O)C(=O)C1c1ccc(O)cc1 (stereo partly specified)	45
COc1ccc(NC(=O)Nc2ccc3c(c2)C(=O)N([C@H](C)CO)C[C@@H](C)[C@@H](CN(C)S(=O)(=O)c2ccc(F)cc2)O3)cc1	41
CCN(CC)CCn1nnc2c(=O)oc3ccccc3c21	19
O=C(Nc1ccc(S(=O)(=O)Nc2ncccn2)cc1)c1ccccc1Oc1ccccc1	-8
N=c1oc2ccc3ccccc3c2cc1C(=O)Nc1ccccc1	115*
Cc1c(Cl)cccc1NC(=O)Cn1cc(C(=O)C2CC2)c2ccccc21	38
C[C@@H]1CN([C@@H](C)CO)C(=O)c2cccc(NC(=O)Nc3cccc4ccccc34)c2O[C@H]1CN(C)S(=O)(=O)c1ccccc1	21
C[C@H]1CN([C@@H](C)CO)C(=O)Cc2cc(N(C)C)ccc2O[C@H]1CN(C)C(=O)Nc1cccc2ccccc12	-9

5 structures already listed, arranged by count of non-hydrogen atoms, ascending.
SMILES	NOMO-1 viab
Cc1cc(C)cc(NC(=O)C2CC(=O)n3ncnc3N2)c1 (stereo unspecified)	-17
O=C(NCc1ccco1)c1ccccc1NC(=O)C1COc2ccccc2O1 (stereo unspecified)	42
O=C(CSc1nnc(-c2cccc(Br)c2)n1-c1ccccc1)Nc1ccccc1[N+](=O)[O-]	18
Cc1ccc(S(=O)(=O)N(C)C[C@H]2Oc3ccc(NS(C)(=O)=O)cc3CC(=O)N([C@H](C)CO)C[C@H]2C)cc1	6
C[C@@H]1CN([C@H](C)CO)C(=O)c2cccc(NC(=O)C3CCCCC3)c2O[C@H]1CN(C)C(=O)Nc1ccc2c(c1)OCO2	7

Screening results from PubChem.

A portion of the library, so the mix of outcomes need not match the whole.
